# PABP FP inh: blocks human PABP binding to poly(A) RNA. 290,000 tested, 1% active. fluorescence polarization. inhibition, % at 35 µM;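 active means 50% or more with normal probe brightness, or confirmed in later tests; inconclusive means above 50% with abnormal brightness, or retests that disagree; inactive means below 50% or failed in later tests; about a fifth of its hits are not listed in these tables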;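 further: calls also rest on retests at 20 µM and on dose response follow-up; controls were probe without protein and protein plus probe with vehicle; some compounds called inactive have numbers as strong as hits; many hits fall short of the cut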
# Target sequence (P11940 whole entry, looked up): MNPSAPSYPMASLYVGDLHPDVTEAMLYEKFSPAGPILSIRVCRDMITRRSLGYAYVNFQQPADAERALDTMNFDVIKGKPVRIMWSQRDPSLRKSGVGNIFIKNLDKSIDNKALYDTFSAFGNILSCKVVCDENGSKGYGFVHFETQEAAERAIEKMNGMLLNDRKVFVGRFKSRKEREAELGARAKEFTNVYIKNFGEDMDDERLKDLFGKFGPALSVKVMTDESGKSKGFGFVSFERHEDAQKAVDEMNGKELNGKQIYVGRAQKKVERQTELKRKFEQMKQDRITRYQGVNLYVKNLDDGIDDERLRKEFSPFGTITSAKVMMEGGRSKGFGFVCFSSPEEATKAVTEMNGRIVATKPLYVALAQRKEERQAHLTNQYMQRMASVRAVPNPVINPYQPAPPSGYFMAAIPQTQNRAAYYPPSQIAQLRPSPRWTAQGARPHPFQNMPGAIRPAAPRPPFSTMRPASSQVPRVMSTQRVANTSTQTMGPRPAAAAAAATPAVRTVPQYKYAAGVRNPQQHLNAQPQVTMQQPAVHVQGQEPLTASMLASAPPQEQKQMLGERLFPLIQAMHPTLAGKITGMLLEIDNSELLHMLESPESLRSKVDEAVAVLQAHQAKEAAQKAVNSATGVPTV
# MT1-MMP act inh: blocks activation of human MT1-MMP. P50281. HT1080 RFP-PRO-GFP cells, GFP/RFP ratio fluorescence, overnight; percent of plate control window, DMSO zero. GFP/RFP ratio change, % at 20 µM. 360,000 tested, 0.061% active. AID 651647;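 active means GFP/RFP ratio change of at least 30% with cell ATP level not reduced by more than half and red fluorescence within 50% of control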; further: strong numbers were not always called active
#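 Assay system: RFP-PRO-GFP reporter HT1080 cells; read-out basis: GFP/RFP fluorescence ratio; benchmarks: DMSO wells and RFP-L50D-GFP cells; doses: 20 µM single dose, 1% DMSO; schedule: overnight cell settling, then overnight compound exposure, 37 °C, 5% CO2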
# Rce1 inhib: yeast Ras-converting enzyme inhibition. yeast membranes, quenched prenylated peptide cleavage fluorescence. calls only. Q03530. 290,000 tested, 0.27% active. AID 2563;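 active means fall in fluorescence gain of 50% or more versus controls, with final raw signal at or below 3038400; inconclusive means same 50% fall but final raw signal above 3038400; inactive means fall in fluorescence gain under 50%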;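 further: plate controls were neutral control wells for no effect and wells lacking membranes for full effect; tested at 10 µM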
# Yeast UUG start: modulators of start codon recognition fidelity in yeast; AID 602363; activity score, % at 18.7 µM; S. cerevisiae UUG-firefly luciferase reporter, luminescence/redox ratio; 350,000 tested, 0.13% active;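 active means replicate mean at a twofold rise or more, about +100% in these data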;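 further: firefly luciferase made from a UUG start codon reports start codon fidelity; reporter light over untreated wells divided by growth signal over untreated wells; some hits fall short of that in this replicate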
# CSC inhib: blocks cancer stem cells; cancer stem cell-like cells viability, luminescence; inhibition, % at 7.5 µM; 300,000 tested, 1.1% active; AID 2717;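 active means mean at 75% or more and at least half the replicates too; inconclusive means mean and replicates disagree; tested in HMLE shEcad cells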;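 further: 0% = median of negative and 100% = median of positive control wells; the first replicate is given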
# eIF4H FP inh: inhibitors of RNA binding by human eIF4H | Q15056 | eIF4H fluorescence polarization binding assay | inhibition, % at 35 µM | 290,000 tested, 0.94% active | AID 2012;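 active means 50% or more with normal probe brightness, or confirmed in later tests; inconclusive means above 50% with abnormal brightness, or retests that disagree; inactive means below 50% or failed in later tests; about a fifth of its hits are not listed in these tables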;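 further: calls also rest on retests at 20 µM and on dose response follow-up; 0% = protein and probe with vehicle and 100% = probe without protein; strong numbers were not always called active; many hits fall short of the cut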
# Env fusion inh: inhibitors of HIV Env-mediated cell fusion; 360,000 tested, 1.1% active; HeLa-JRFL Env/CEM21 cell fusion, luciferase; inhibition, % at 12.3 µM; AID 651610;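 active means mean replicate inhibition score of at least 50 and every replicate individually at or above 50; inconclusive means only one of the two criteria met; inactive means mean below 50 and not all replicates reaching 50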;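 further: 0% = plate neutral controls and 100% = maraviroc near 300 nM; one replicate is shown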
# eIF4H FP inh retest: further read-out of eIF4H FP inh, marked with its call; inhibition, %; compound at 20 µM; confirmation average;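 mean of two retest wells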
# PABP FP inh retest: recorded beside PABP FP inh, whose call it bears; inhibition, %; compound at 20 µM; confirmation repeats;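 mean of two retest wells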
# MT1-MMP act inh RFP: also measured in MT1-MMP act inh; calls as there; RFP signal change, %; measured here: RFP expression control read;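 0 = vehicle wells; hits needed this value within 50% of zero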
# The depositor's hits bear a star; i = inactive; ? = inconclusive; · = not tested or not shown.
SMILES,PABP FP inh,MT1-MMP act inh,MT1-MMP act inh RFP,Rce1 inhib,Yeast UUG start,CSC inhib,eIF4H FP inh,Env fusion inh,others
O=C(C1=C[C@@H](c2ccc(Br)cc2)C[C@@H](OCCCCO)O1)N1CCN(Cc2ccc3c(c2)OCO3)CC1,5,0,-4,i,10,-6,-4,-2,
COc1cccc(/C=C2\SC(=O)N(CCC(=O)NC3CCS(=O)(=O)C3)C2=O)c1 (configuration not stated),11,2,-2,i,3,3,-16,-6,
Cc1ccoc1C(=O)Nc1ccc2ccccc2c1,-3,-3,-2,·,-48,12,1,-236,
OC(c1ccccc1)(c1ccccc1)c1nccc2ccccc12,·,-1,-2,·,6,·,·,-15,
O=C(Cc1ccc(F)cc1)N/N=C/c1ccc(-c2ccc(Cl)c(C(=O)O)c2)o1,-15,0,4,i,·,-10,7,-4,
O=[N+]([O-])c1cccc(-c2cn3nc(-c4ccccc4)c(-c4ccccc4)nc3n2)c1,34,-7,-8,i,-16,-4,24,2,
COc1ccc(NC(=O)CN(c2ccccc2C)S(C)(=O)=O)c(OC)c1,2,-2,-3,i,3,-10,8,6,
CC(=O)NCCSc1ccc(S(=O)(=O)N2CCCC2)cn1,·,1,1,·,-11,·,·,-32,
NC(=O)NCCC1=CCCCC1,-2,2,5,i,-18,-8,-1,-27,
COc1cc(C(=O)NC(CCSC)C(=O)OCC(=O)NC(=O)C2CCCCC2)cc(OC)c1OC (configuration not stated),22,2,1,i,-4,8,8,5,
Cn1c(C(=O)O)c(S(=O)(=O)c2ccc(Cl)cc2)c2ccccc21,2,-1,0,i,-6,1,1,2,
C=CCN(c1ccccc1)S(=O)(=O)c1cccc(C(=O)NCC(c2ccccc2OC)N2CCCC2)c1 (configuration not stated),·,-5,-5,i,10,38,·,-89,
COc1ccc(NC(=O)Cc2c[nH]c3ccccc23)cc1S(=O)(=O)N1CCOCC1,6,4,2,i,-4,1,-3,10,
CS(=O)(=O)N(CC(=O)N1CCN(Cc2ccccc2)CC1)c1ccc2c(c1)OCCO2,-9,4,4,i,-17,1,-2,·,
O=C(O)COc1ccc(NC(=O)c2ccc3c(c2)C(=O)N(C2CCCCC2)C3=O)cc1,9,-4,3,i,-12,8,8,7,
Cc1cccc(NC(=S)NC(C)C(c2ccccc2)N2CCN(C)CC2)c1C (configuration not stated),14,-20,-7,i,·,-3,-4,-18,
CCCc1nc(NCC2CCCO2)c2nnn(Cc3ccccc3)c2n1 (configuration not stated),-4,-1,-4,i,-1,-10,-2,·,
Cc1[nH]c2ccccc2c(=O)c1CN1CCCCC1,-13,-7,-26,i,-24,-18,-8,-145,
O=C1C2CCCN2C(c2ccccc2)N1c1ccc(F)cc1 (configuration not stated),10,2,3,i,-14,2,-6,-17,
c1ccc2[nH]c(SCc3cn4ccccc4n3)nc2c1,-13,-2,-2,i,·,7,-2,-8,
O=C(c1ccc(Cn2c(=O)[nH]c3ccccc3c2=O)cc1)N1CCN(c2ccccn2)CC1,-4,-3,2,i,-3,-8,-10,31,
COc1ccccc1CNC(=O)[C@H](C)NC(=O)C1CCN(C(=O)[C@@H](N)C(C)C)CC1,-4,-19,-11,i,-7,-1,3,·,
O=C(C1CCCCC1)N1CCCc2ccccc21,4,-5,1,i,-10,-9,2,·,
O=C(Nc1ccc(N2CCCCC2)cc1)c1ccc([N+](=O)[O-])o1,18*,4,-11,·,-26,32,74*,-276,eIF4H FP inh retest=70*;PABP FP inh retest=54*
CCOc1ccc(CCNC(=O)c2cnc(C)cn2)cc1OCC,7,3,4,i,-4,-9,7,-2,
COc1cccc(N2C(=O)N(c3ccccc3Cl)C3CS(=O)(=O)CC32)c1 (configuration not stated),8,1,2,i,-14,-3,5,-2,
COc1ccccc1N1CN(S(=O)(=O)c2ccc(C)cc2)c2nc3ccccc3nc21,·,-1,-3,·,-14,4,·,6,
O=C(COc1ccccc1-c1ccccc1)N/N=C/c1cccnc1,-11,2,0,i,·,·,-3,-72,
CN(C(=O)c1cccc(NC(=O)Cc2ccc(NC(=O)C3CCN(C(=O)C4CCCC4)CC3)cc2)c1)C1CC1,·,2,3,·,-14,·,·,-4,
CCOC1=C2[C@@H](CN(S(=O)(=O)c3ccc(C)cc3)[C@H]2c2cccc3ccccc23)[C@H]2C(=O)N(Cc3ccccc3)C(=O)[C@H]2C1,·,-3,-4,·,-12,·,·,34,
Cc1ccc(S(=O)(=O)Nc2ccccc2C=Nc2cccc(C)c2C)cc1,-6,4,-1,i,·,25,-5,-15,
Cc1ccc(S(=O)(=O)N2CCN(S(=O)(=O)c3ccc4c(c3)OCCO4)CC2)cc1,5,-6,-2,i,-7,-13,-2,·,
COCCN(C(=S)Nc1c(C)cc(C)cc1C)C(C)c1cccnc1 (configuration not stated),-3,7,5,i,-17,-15,-5,-12,
O=C(COC(=O)c1cccs1)NCC1CCCCC1,-5,4,4,i,·,-8,5,-1,
Cc1ccc2nc(NC(=O)C3CCCN3C(=O)OC(C)(C)C)sc2c1 (configuration not stated),-2,-2,-1,i,·,·,4,-8,
Cc1ccc(Oc2nc(CN3CCOCC3)nc3sc4c(c23)CCC(C)C4)cc1C (configuration not stated),4,-8,-8,i,·,120*,-3,·,
O=C(CCC(=O)N1CCSc2ccccc21)Nc1ccc(F)cc1,-2,0,2,i,19,-10,-7,-32,
COc1ccc(C2=NN(C(=O)CCC(=O)O)C(c3cccs3)C2)cc1OC (configuration not stated),-12,3,4,i,·,-14,-3,14,
NC(=O)CCNC(=O)c1ccc(Cl)cc1,-8,5,3,i,3,0,1,-40,
O=C(Nc1cnn(Cc2ccc(F)cc2)c1)c1cnccn1,-1,2,0,·,-7,-32,-3,·,

# Grouped by structure: the compounds so far containing two or more sulfur atoms
SMILES,PABP FP inh,MT1-MMP act inh,MT1-MMP act inh RFP,Rce1 inhib,Yeast UUG start,CSC inhib,eIF4H FP inh,Env fusion inh,others
COc1cccc(/C=C2\SC(=O)N(CCC(=O)NC3CCS(=O)(=O)C3)C2=O)c1 (configuration not stated),11,2,-2,i,3,3,-16,-6,
CC(=O)NCCSc1ccc(S(=O)(=O)N2CCCC2)cn1,·,1,1,·,-11,·,·,-32,
Cc1ccc(S(=O)(=O)N2CCN(S(=O)(=O)c3ccc4c(c3)OCCO4)CC2)cc1,5,-6,-2,i,-7,-13,-2,·,

# The list goes on:
SMILES,PABP FP inh,MT1-MMP act inh,MT1-MMP act inh RFP,Rce1 inhib,Yeast UUG start,CSC inhib,eIF4H FP inh,Env fusion inh,others
C=C(CCC(=O)c1ccccc1)C(=O)c1ccccc1,-1,-9,-12,i,·,48,-3,-3,
COc1ccc(NC(=O)N(C2CCCCC2)C(C)c2cccnc2)c(OC)c1 (configuration not stated),-7,6,2,i,-16,-8,10,·,
Cn1cc(-c2ccc(C(=O)Nc3cccc(Oc4ccccc4)c3)c3occc23)cn1,·,8,-9,·,1,·,·,-11,
CCOC(=O)Cn1cc(Cl)c(=O)c(Cl)c1,-7,0,4,i,·,-7,-4,2,
CCCC(=O)Nc1ccccc1Sc1ncnc2scc(-c3ccccc3)c12,-3,-9,-10,i,4,-6,-8,?,
COc1ccc(C(=O)c2cc3ccc(O)cc3oc2=O)cc1,-10,-4,1,i,-21,3,-2,·,
Cc1csc(/N=C/N(C)C)c1C#N,-3,-1,6,i,·,13,-9,7,
Cc1nnc(SCCC(=O)Nc2ccc(Cl)cc2)o1,3,-3,-3,i,-9,-15,-19,16,
COc1ccc(C(CC(=O)N2CCN(c3ccccc3)CC2)c2c(OC)cc(OC)c3ccc(=O)oc23)cc1 (configuration not stated),2,-4,-6,i,-16,-4,52,-17,eIF4H FP inh retest=0;PABP FP inh retest=3
CC1CCN(C(=O)C(NS(=O)(=O)c2cccc3nsnc23)c2ccccc2)CC1 (configuration not stated),-6,-4,-1,i,-7,2,-8,15,
COc1ccc(/C=N/N=C/c2ccc(OC)cc2)cc1,-7,1,2,i,-14,-7,2,-12,
CCOc1cc(CNCc2ccccc2)ccc1OCc1ccc(Cl)cc1,-3,-1,-19,i,-16,28,5,23,
CN1CCN(S(=O)(=O)c2ccc(NC(=O)Cc3cccs3)cc2)CC1,-2,1,2,i,·,-2,-12,·,
CC(C)OCCCNC(=O)c1cc2c(=O)n(C)c3ccccc3c2n1C,-6,4,3,i,-3,-5,-5,-5,
Cc1cnc(C(=O)NCc2ccc(F)cc2)cn1,-2,-1,3,i,-9,-7,-5,12,
CCOc1ncccc1C(=O)OCC(=O)c1ccc(F)cc1,4,0,6,i,·,-1,-14,8,
CCC(c1nnc(SCC(=O)Nc2ccc(C(=O)Nc3ccccc3OC)cc2)o1)N(C)C (configuration not stated),0,5,1,i,-17,-11,-4,·,
O=C(NC1CCCCC1)c1cccc(COCC(F)(F)F)c1,1,0,1,i,-9,-16,-1,51,
O=S1(=O)C=C(SCc2cccc(Cl)c2)Nc2ccccc21,-16,-3,-5,i,·,14,-10,·,
CCn1c(SCc2nc(-c3ccccc3)no2)nnc1-c1cccs1,0,-4,-2,i,-19,4,-10,-50,
CC(=O)N1[C@H](C)C=C[C@]1(Cc1ccccc1)C(=O)NCc1cc(F)cc(C(F)(F)F)c1,0,2,-2,i,-3,5,-6,-1,
O=C(NC1CCCCC1)C1CCN(C(=O)c2ccc(Cl)cc2)CC1,0,1,0,i,-7,-3,5,8,
CSc1ccccc1C(=O)Nc1ccc2c(c1)OCO2,-3,2,8,i,-3,10,0,9,
Cc1cc(N2CCN(Cc3nc(-c4ccc(Cl)cc4)oc3C)CC2)cc(C)n1,10,·,·,i,-4,38,4,22,
COc1ccccc1NS(=O)(=O)c1ccc(O)c(C(=O)OCC(=O)N2c3ccccc3CC2C)c1 (configuration not stated),35,-4,-3,i,-23,9,-5,10,
COC(=O)c1sccc1NC(=O)Nc1ccccc1OC,-2,-3,0,i,-3,-8,1,-2,
O=C(COC(=O)c1n[nH]c2ccccc12)NC(=O)NC1CCCC1,4,2,1,·,-3,25,-15,·,
COc1ccc(-c2cc(C(=O)N3CCOCC3)no2)cc1OC,3,9,4,i,-8,5,-7,-16,
Cc1cccc(NC(=S)N2CCC(c3nc4ccccc4o3)CC2)c1,-2,2,-2,i,·,·,3,4,
CCC(=O)c1ccccc1OCCN1CCN(Cc2ccccc2)CC1,14,0,-2,i,·,6,2,-8,
CCOC(=O)NC(=O)CSc1nnnn1-c1ccc(C)cc1,2,2,0,·,0,-9,-12,-34,
CC(=O)Nc1cccc(S(N)(=O)=O)c1C,-5,2,-1,i,·,4,-1,20,
CCn1c(COc2cccc3cccnc23)nnc1SCC(=O)O,10,1,6,i,-6,3,2,-2,
Cc1ccc(NC(=O)c2cccc(N3C(=O)CCC3=O)c2)nc1,7,2,6,i,-14,·,10,·,
CC(NC(=O)COC(=O)CNS(=O)(=O)/C=C/c1ccccc1)c1ccccc1 (configuration not stated),·,-1,-2,·,-15,-14,·,-1,
CC1CCN(c2ccccc2NC(=S)NC(=O)c2ccc(-c3cccc([N+](=O)[O-])c3)o2)CC1,18,-4,3,i,-19,-6,25,-37,
COc1cc(/C=C(\C#N)c2nc(-c3cc4ccccc4oc3=O)cs2)ccc1O,-8,-90,3,i,·,23,3,9,
Cc1ccc(C)c(OCc2cc(C(=O)N(C)Cc3nccs3)no2)c1,-5,-3,-2,i,-3,-3,-12,-15,
Nc1nc(CSC(=S)N2CCN(c3ccccc3)CC2)nc(Nc2ccccc2)n1,-8,-5,-28,i,-14,40,-13,16,

# Assay outcomes as filed in PubChem.

# A portion of the library; the hit share may differ from the screen's.
